# Assay outcomes (PubChem BioAssay)
# KAT2A inh: GCN5L2 (KAT2A) acetyltransferase inhibition; Q92830; GCN5L2 HAT assay, ThioGlo1 CoA-SH fluorescence; Potency, µM (doses to about 58.9 µM), for inactives: at the highest dose activity change, negative = inhibition, hits mostly inhibitors; 390,000 compounds, 0.21% hits; AID 504327; active = well fitted inhibition curve with a large enough effect; inconclusive = small, poorly fitted or top-dose-only effect, or another doubt; inactive = no such curve, though single readings can be large or run the other way
# Target sequence (Q92830 whole entry, looked up): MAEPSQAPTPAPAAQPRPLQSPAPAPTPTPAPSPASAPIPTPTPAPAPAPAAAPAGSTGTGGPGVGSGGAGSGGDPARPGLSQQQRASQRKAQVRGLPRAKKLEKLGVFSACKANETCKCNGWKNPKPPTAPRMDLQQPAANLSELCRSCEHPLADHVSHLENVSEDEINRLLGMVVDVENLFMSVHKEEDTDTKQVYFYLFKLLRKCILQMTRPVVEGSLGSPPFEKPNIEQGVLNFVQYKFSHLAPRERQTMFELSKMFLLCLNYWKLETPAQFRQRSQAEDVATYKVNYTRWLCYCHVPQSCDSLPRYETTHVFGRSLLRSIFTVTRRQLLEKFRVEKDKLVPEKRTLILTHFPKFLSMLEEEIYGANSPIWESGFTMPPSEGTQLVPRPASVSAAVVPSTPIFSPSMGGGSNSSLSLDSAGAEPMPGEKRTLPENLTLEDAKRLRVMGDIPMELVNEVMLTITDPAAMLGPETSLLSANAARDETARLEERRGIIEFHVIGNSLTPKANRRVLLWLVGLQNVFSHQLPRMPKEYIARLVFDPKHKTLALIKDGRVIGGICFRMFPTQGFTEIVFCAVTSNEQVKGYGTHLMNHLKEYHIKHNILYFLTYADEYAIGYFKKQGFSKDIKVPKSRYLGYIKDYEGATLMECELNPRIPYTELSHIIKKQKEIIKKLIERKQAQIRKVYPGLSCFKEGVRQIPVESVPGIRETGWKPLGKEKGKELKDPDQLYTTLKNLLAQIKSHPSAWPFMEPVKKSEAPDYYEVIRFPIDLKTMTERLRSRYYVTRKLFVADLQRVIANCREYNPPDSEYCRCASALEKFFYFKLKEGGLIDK
#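 qHTS, 1536-well. 20nM enzyme, pH 7.5 HEPES/EDTA/Tween-20 buffer; 15 min compound preinc., RT. Start: 75uM H3(1-25), 70uM AcCoA, 50uM ThioGlo1. Read Ex340/Em540 at t=0 (autofluorescence flag) and t=20 min.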
# * hit, by the source's call; u = inconclusive; [ ] = remark or other dose. % is set by controls: 0 for no effect and ±100 for the full control effect; potency is the fitted concentration of half-maximal effect.
SMILES,KAT2A inh
CCc1cccc(C)c1NC(=O)COC(=O)c1c2c(nc3ccccc13)/C(=C\c1cccs1)CCC2,-6%
CCCCCOc1ccc(/C=C/C(=O)Nc2sc(C)c(C)c2C(=O)OCC)cc1OC,-6%
COc1ccc(S(=O)(=O)N2CCN(C)CC2)cc1C(=O)N1CCCCC1,-3%
CCNC(=O)NC(=O)C(C)OC(=O)c1ccc(-n2nc(SC)sc2=S)cc1 (stereo unspecified),-12%
O=C(O)c1ccccc1C(=O)N1CCc2c([nH]c3ccccc23)C1C(F)(F)F (stereo unspecified),-2%
Cc1c(C(=O)OCC2CCCCC2)[nH]c2c1C(=O)CC(c1ccccc1Cl)C2 (stereo unspecified),1%
COc1ccc(NC(=O)Cc2nnc(N)s2)cc1,-9%
COc1ccc(NC(=O)c2nc3nccc(C)n3n2)cn1,-10%
Cc1noc(C)c1COc1cccc(C(=O)Nc2ccc(C#N)cc2)c1,-2%
CCn1c(C(=O)NCc2ccccc2Cl)cc2sc(Cl)cc21,-10%
CC(=O)Nc1ccc(NC(=O)CSc2nnnn2-c2ccc3c(c2)OCCO3)cc1,-3%
CC(C)CCCC(C)C1CCC2C3=CC[C@@H]4CC(O)CC[C@@]4(C)C3CC[C@]21C (stereo partly specified),-22%
COc1ccc2oc(C(=O)OCC(=O)Nc3ccccc3)c(C)c2c1,-14%
Cc1ccc(NC(=O)Nc2cnccn2)cc1C,-13%
COc1ccc(NC(=O)CN(c2cccc(F)c2)S(C)(=O)=O)cc1OC,2%
Cc1ccc2nc(/N=C(\N)NC(=O)NC3CCCCC3)nc(C)c2c1,-1%
Cc1ccc2nc(NC(=O)CN3C(=O)C4CC=CCC4C3=O)sc2c1 (stereo unspecified),-7%
N#Cc1ccc(Cl)cc1NC(=O)COC(=O)c1cccc(S(=O)(=O)N2CCOCC2)c1,1%
CCC(C)NC(=O)c1ccc(CSCc2cccc(F)c2)o1 (stereo unspecified),0%
CCOc1ccc2nc(C)cc(Nc3ccc4c(c3)OCCO4)c2c1,-13%
COc1ccc(CN2C(=O)c3ccccc3C2C(=O)NCC2CCCO2)c(OC)c1 (stereo unspecified),-2%
CCOc1ccc(-c2nc(CSc3nncs3)cs2)cc1OC,-5%
CCOC(=O)c1c(C)[nH]c(C)c1C(=O)CSc1nnc(-c2ccncc2)n1C,-2%
CC(C)Oc1ccccc1C(=O)NC(CO)C(=O)O (stereo unspecified),-10%
OC(CCCCN1CCCCC1)c1ccccc1 (stereo unspecified),-3%
# Continuation:
SMILES,KAT2A inh
Cc1cc(-c2ccccc2)n(-c2ccc(C(=O)NC(C)C)cc2)n1,-3%
O=C(CNS(=O)(=O)c1ccc(Cl)cc1)OCC(=O)N1CCCc2ccccc21,-4%
COc1cc(N2CCOCC2)ccc1C=C(C#N)C#N,-1%
COc1ccc(C)cc1NC(=O)C(=O)N1CCCC1,0%
CCc1ccc(NC(=O)N2CC(C)Oc3ccc(C)cc32)cc1 (stereo unspecified),-14%
Cc1nnc2ccc(-c3cccc(NS(=O)(=O)c4ccccc4Cl)c3)nn12,-2%
Cc1cc(SCc2ccc(Br)cc2)nc(=O)[nH]1,-4%
COc1cccc(C(=O)Oc2ccc(N3C(=O)CCC3=O)c(C)c2)c1,-7%
CC(C)(C)NC(=O)C[C@H]1C[C@H](C(=O)N2CCOCC2)[C@@]2(CCC3CCCC3)c3[nH]c4cc(-c5ccco5)ccc4c3CCN2C1=O,-13%
C/C=C/C(=O)OCC(=O)Nc1cccc(Br)c1,-1%
COCCCNC(=O)Cn1nc(-c2ccc(C)cc2)ccc1=O,-12%
CCC(=O)Nc1cc2c(cc1C(=O)CC)OCCO2,-3%
Cc1nc(C(=O)O)nn1-c1cc(Cl)ccc1Cl,-7%
Cc1ccc(CN2CCNC(=O)C2CC(=O)NC2CCCCCC2)cc1 (stereo unspecified),-8%
O=C(NCC1CCN(Cc2cccc(F)c2)CC1)c1cc2ccc3cccnc3c2[nH]1,-13%
O=C(Nc1ccc2c(c1)OCO2)C1CC(=O)N(c2cccc(Cl)c2)C1 (stereo unspecified),-6%
O=C(Cc1ccccc1Cl)N1CCOCC1,0%
COc1ccc(-c2nc(C)c(C(C)=O)n2O)cc1[N+](=O)[O-],-15%
Cc1ccc2[nH]ccc(=O)c2c1,0%
O=C(NC1CC(=O)N(c2ccc(Cl)cc2)C1)C(=O)c1c[nH]c2ccccc12 (stereo unspecified),1%
C/C(=N\NC(=O)CSc1nc(C)cc(C)n1)c1ccc2c(c1)OCCO2,-9%
COc1ccc(N(CC(=O)Nc2ccc(C(C)C)cc2)S(=O)(=O)c2c(C)noc2C)cc1,-2%
COC(=O)c1cccnc1NC(=S)NC1CCCCC1,-1%
COc1ccc(-c2cc(C(=O)NCc3ccccc3)c3c(-c4ccccc4)[nH]nc3n2)cc1,13%
C[C@@H](CN1C2=NC[C@H](Cc3ccc(O)cc3)N2C[C@H]1Cc1ccc(O)cc1)NC(=O)CCC1CCCCC1,13%
# Next part.
SMILES,KAT2A inh
Cc1onc(-c2ccccc2)c1C(=O)N1CCN(C/C=C/c2ccccc2)CC1,-2%
O=c1cc(-c2cccc(Cl)c2)oc2cccc(O)c12,-19%
CCN(CC)C(=O)Cn1nnc(-c2ccc(S(C)(=O)=O)cc2)n1,1%
COc1cccc(CNC(=O)COC(=O)CN(C)S(=O)(=O)c2ccc(NC(C)=O)cc2)c1,-12%
COCCN(C(=S)Nc1ccc(OC)cc1)C(C)c1cccs1 (stereo unspecified),1%
CCOc1cccc(CN(C)CC2CCCN(CCc3ccc(Cl)cc3)C2)c1O (stereo unspecified),-2%
O=C(NNC(=O)c1ccccc1F)c1ccc(Cl)c(S(=O)(=O)N2CCOCC2)c1,-6%
COc1ccc(S(=O)(=O)N2CCCN(S(=O)(=O)c3ccc(OC)c(C)c3)CC2)cc1C,-4%
CN(C)/C=C/C(=O)c1ccccc1,0%
CC1=CCC2C(=O)N(c3ccc(OC(=O)c4ccco4)cc3)C(=O)C2C1 (stereo unspecified),-8%
COc1ccc(CNCc2ccc(C(F)(F)F)cc2)cc1OC,-12%
CC(=O)c1sc(NC(=O)CCS(=O)(=O)c2ccc(Cl)cc2)nc1C,0%
O=C(Cc1ccccc1)N1CCC2(CC1)NCCc1[nH]cnc12,u
CCSc1ccccc1C(=O)NCCCn1ccnc1,-13%
CN(C)c1ccc(CNc2nc(-c3ccco3)nn2S(=O)(=O)c2ccc3ccccc3c2)cc1,-13%
COc1ccc(N2CCN(C(=O)CCS(=O)(=O)c3cccc4nsnc34)CC2)cc1,44%[activator]
Cc1cccc2cc(CN(Cc3nnnn3Cc3ccco3)C3CCCC3)c3nnnn3c12,-5%
COc1cccc(CNC(=O)CCc2nnc3n(C)c(=O)c4sccc4n23)c1,-3%
Cc1cnc(C(=O)OCC(=O)NCc2ccccc2)cn1,-8%
Brc1ccc(-c2csc(Nc3nc(-c4ccc(Br)cc4)cs3)n2)cc1,15%
Cc1sc2c(c1C)c(=O)n(Cc1ccccc1)c(=O)n2CC(=O)Nc1cccc(Cl)c1,-9%
CCOc1ccc2c(C)cc(=O)oc2c1OCC,-11%
COc1cc(C(=O)Nc2cc(-c3nc4cc(C)ccc4o3)ccc2C)cc(OC)c1OC,-6%
CCOc1ccccc1N(CC(=O)Nc1ccc2c(c1)OCCO2)S(C)(=O)=O,2%
Nc1ccccc1-c1nc2ccccc2c(=O)o1,-15%
# Additional structures follow.
SMILES,KAT2A inh
CCOC(=O)c1cc2sccc2n1CC(=O)Nc1ccc(OC)cc1,1%
CCOC(=O)c1ccc(Nc2nc(N3CCOCC3)nc(N3CCOCC3)n2)cc1,2%
COc1cc(C2C(S(=O)(=O)c3ccccc3)CON2C)ccc1OCc1ccc(F)cc1 (stereo unspecified),-2%
O=C(NCc1cccnc1)Nc1cccc(C(F)(F)F)c1,-19%
O=C(CSCc1cc(=O)n2nc(C3CC3)sc2n1)Nc1ccccc1Cl,-2%
O=C(Nc1ccccc1C(=O)NC1CC1)c1ccccc1F,0%
O=C(NCCCc1ccccc1)c1cnc2n(c1=O)CCS2,-4%
CC(OC(=O)c1ccc(NC(=O)CC#N)cc1)C(=O)Nc1nc(-c2ccccc2)cs1 (stereo unspecified),-1%
COc1cccc(NC(=O)C2C3CCC4C(CCC32)C4(Cl)Cl)c1 (stereo unspecified),-5%
COc1ccc2nc(NC(=O)c3nc(SCc4cccc(C)c4)ncc3Cl)sc2c1,-8%
COc1ccc(NS(=O)(=O)c2ccc3oc(SCc4ccc(F)cc4)nc3c2)cc1,-6%
CCOC(=O)c1ccc(NC(=O)C2CCN(C(=O)N3CC(C)Oc4ccc(C)cc43)CC2)cc1 (stereo unspecified),-13%
Cc1cc(C)n(-c2nnc(Nc3cc(Cl)ccc3C)c3ccccc23)n1,-8%
Cc1nc2cc(NC(=O)N(C)c3ccc4ccccc4c3)ccc2o1,-8%
Cc1ccccc1-c1nc(CN2CCC(C(=O)NCc3cccs3)CC2)c(C)o1,-3%
COc1ccc(N(CC(=O)NC2CCCCCCC2)S(=O)(=O)c2c(C)nn(C)c2C)cc1,0%
NCCCCCc1nnc(SCc2ccc(Cl)cc2Cl)o1,-13%
CC(C)(C)OC(=O)NC(CCCCNC=O)C(=O)O (stereo unspecified),-5%
Cc1ccccc1OCC(=O)O/N=C(\N)Cc1cccs1,-3%
Cc1cc(NC(=O)CSc2nc(-c3cccs3)cc(C(F)(F)F)n2)no1,4%
CCOC(=O)Cc1ccc(NC(=O)N2CCC(CN3CCCCCC3)CC2)cc1,3%
COc1ccc(C2CC(=O)c3cc(-c4nc(-c5cccc([N+](=O)[O-])c5)cs4)c(=O)n(-c4ccc(F)cc4)c3C2)cc1 (stereo unspecified),-2%
CCCOc1cccc(C(=O)Nc2nnn(CCC)n2)c1,0%
COc1ccc(-c2ccc(=O)n(Cc3ccc([N+](=O)[O-])cc3)n2)cc1,-9%
COc1ccc(-c2nc(N)n(C(C)=O)n2)cc1,-2%

# Reformatted: results already given
structure | KAT2A inh
CCOC(=O)c1cc2sccc2n1CC(=O)Nc1ccc(OC)cc1 | 1%
CCOC(=O)c1ccc(Nc2nc(N3CCOCC3)nc(N3CCOCC3)n2)cc1 | 2%
COc1cc(C2C(S(=O)(=O)c3ccccc3)CON2C)ccc1OCc1ccc(F)cc1 (stereo unspecified) | -2%
O=C(NCc1cccnc1)Nc1cccc(C(F)(F)F)c1 | -19%
O=C(CSCc1cc(=O)n2nc(C3CC3)sc2n1)Nc1ccccc1Cl | -2%
O=C(Nc1ccccc1C(=O)NC1CC1)c1ccccc1F | 0%
O=C(NCCCc1ccccc1)c1cnc2n(c1=O)CCS2 | -4%
CC(OC(=O)c1ccc(NC(=O)CC#N)cc1)C(=O)Nc1nc(-c2ccccc2)cs1 (stereo unspecified) | -1%
COc1cccc(NC(=O)C2C3CCC4C(CCC32)C4(Cl)Cl)c1 (stereo unspecified) | -5%
COc1ccc2nc(NC(=O)c3nc(SCc4cccc(C)c4)ncc3Cl)sc2c1 | -8%
COc1ccc(NS(=O)(=O)c2ccc3oc(SCc4ccc(F)cc4)nc3c2)cc1 | -6%
CCOC(=O)c1ccc(NC(=O)C2CCN(C(=O)N3CC(C)Oc4ccc(C)cc43)CC2)cc1 (stereo unspecified) | -13%
Cc1cc(C)n(-c2nnc(Nc3cc(Cl)ccc3C)c3ccccc23)n1 | -8%
Cc1nc2cc(NC(=O)N(C)c3ccc4ccccc4c3)ccc2o1 | -8%
Cc1ccccc1-c1nc(CN2CCC(C(=O)NCc3cccs3)CC2)c(C)o1 | -3%

# Next results follow.
SMILES,KAT2A inh
Cc1ccc(C)c(-c2ccc(=O)n(Cc3cccc(Br)c3)n2)c1,-3%
CC(NC(=O)Nc1cccc(F)c1)c1ccc2c(c1)OCO2 (stereo unspecified),-7%
Fc1ccc(/C=N/Nc2ncnc3nc[nH]c23)cc1F,-10%
COC(=O)c1ccc(NC(=O)C2CCCN(S(=O)(=O)c3cnc[nH]3)C2)cc1 (stereo unspecified),-9%
CCOC(=O)C1=C(C)N=C2SC=C(C)N2C1c1ccc(OC)cc1 (stereo unspecified),1%
NC(=O)COC(=O)CC(NC(N)=O)c1ccc(Cl)cc1 (stereo unspecified),0%
CCn1c(CC(=O)Nc2ccc(C)c(Cl)c2)nnc1SCCOc1ccc(OC)cc1,-3%
O=[N+]([O-])c1cccc(S(=O)(=O)N2CCN(S(=O)(=O)N3CCCCCC3)CC2)c1,1%
Cc1cccc(NC(=O)CCCN=C2NS(=O)(=O)c3ccccc32)c1C,-3%
Cc1cc(C)nc(SCc2nc3ncccn3c2Br)n1,-2%
CCOC(=O)c1[nH]c(C)c(C(=O)OCC(=O)NC(=O)NC(C)(C)C)c1C,-4%
Cc1cc(C)n2nc(C(=O)Nc3cccc(S(=O)(=O)N(C)c4ccccc4)c3)nc2n1,-8%
CCCC1=C(C(=O)OCC)C(c2ccccc2OC)NC(=O)N1 (stereo unspecified),0%
CCOc1ccc(NC(=O)CSc2nnc(-c3ccc(C)cc3)c(-c3ccc(C)cc3)n2)cc1,-5%
CCOP(=O)(O)c1ccccc1OCCOc1ccccc1P(=O)(O)OCC,-5%
CCC(C(=O)NC1CCCC1)n1c(SCc2cccc(C)c2)nc2ccncc21 (stereo unspecified),0%
CCOc1cc(/C=N/Nc2ccc(C(=O)O)cc2)ccc1OC(=O)c1ccccc1C,u
O=C(NCC(c1cccs1)N1CCOCC1)c1cc(S(=O)(=O)N2CCOCC2)ccc1F (stereo unspecified),3%
CCOC(=O)c1[nH]c2ccc(F)cc2c1N=C(C)N(CC)CC,-9%
CCC1(CC)NC(=O)N(CC(=O)NC(=O)NCc2ccccc2)C1=O,-3%
C=CCOc1ccc(/C(O)=C2/C(=O)C(=O)N(CCCN3CCOCC3)C2c2ccc(OC)cc2)cc1 (stereo unspecified),-3%
CCOC(=O)C1=CN2CCCC[C@@H]2CC1=O,0%

# A portion of the library; most or all hits stand in other tables.
